Source: PubChem
HNF4A DNA FP: change in binding of human HNF4 alpha to DNA | HNF4a-FITC DNA binding, fluorescence polarization, 1 h | activity change, % at 10 µM | hit rate 0.3% among 360,000; in the data active = activity change above about 30%, passing the limit was not always enough;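 note: controls were the assay level and a saturating level of protein; the project sought stronger binding though the title names inhibitors; some compounds called inactive have numbers as strong as hits; positive values seem to mean higher polarization but the record does not say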
FGF22 binding: shifts melting point of recombinant human FGF22. Q9HCT0. recombinant FGF22 thermal shift, SYPRO orange fluorescence; percent of sucrose octasulfate shift, DMSO zero. calls only at 9.99 µM. hit rate 1.5% among 340,000;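 active = melting point raised past a set limit in the mean and every replicate; three in four hits are not shown here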
Target sequence (Q9HCT0 whole entry, looked up): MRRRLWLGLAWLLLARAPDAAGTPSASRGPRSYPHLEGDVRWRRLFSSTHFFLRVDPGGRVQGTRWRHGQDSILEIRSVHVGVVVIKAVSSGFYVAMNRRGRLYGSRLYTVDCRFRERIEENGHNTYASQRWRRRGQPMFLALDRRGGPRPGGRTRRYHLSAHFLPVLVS
B2AR ag: human beta-2 adrenergic receptor agonism by FAP; P07550; Am2.2-beta2AR cells, FAP receptor internalization, flow cytometry; reference of the scale not given here; response, % (no concentration beside the values); hit rate 0.43% among 340,000;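 active = response above a set limit, near 3 SD of response in nonfluorescent compounds, cut at about 42% in these data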;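 note: stock transfer was 100 nL into about 11 µL; a reference agonist was the positive control; negative values mostly stem from fluorescent compounds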
Target sequence (P07550 whole entry, looked up): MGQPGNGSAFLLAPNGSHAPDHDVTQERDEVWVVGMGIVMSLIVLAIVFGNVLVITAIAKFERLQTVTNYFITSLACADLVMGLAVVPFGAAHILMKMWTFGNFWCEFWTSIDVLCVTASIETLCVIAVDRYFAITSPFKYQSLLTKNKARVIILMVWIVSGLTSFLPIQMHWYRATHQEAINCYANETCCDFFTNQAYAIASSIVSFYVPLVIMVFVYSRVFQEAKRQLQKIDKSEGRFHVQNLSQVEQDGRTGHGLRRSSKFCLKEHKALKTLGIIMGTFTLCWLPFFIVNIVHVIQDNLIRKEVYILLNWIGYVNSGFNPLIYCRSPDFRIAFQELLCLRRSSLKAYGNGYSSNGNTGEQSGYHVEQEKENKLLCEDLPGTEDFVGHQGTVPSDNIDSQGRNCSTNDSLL
LANA-H2A inh: blocks KSHV LANA binding to histone H2A/H2B. Q9QR71. cell-free LANA-H2A/H2B peptide, fluorescence polarization. inhibition, % (concentration not given with the values). hit rate 0.6% among 320,000; in the data active = inhibition mostly above about 10%, no sharp cut-off; inactive = mostly below about 6.7%;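 note: stock transfer was 7.5 nL into about 10 µL; 0% = median of vehicle wells and 100% = median of positive control wells; one replicate is shown; the record names a cut of 25% in any replicate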
ALR inh: blocks human ALR sulfhydryl oxidase activity | hit rate 3.8% among 290,000 | inhibition, % (no concentration beside the values) | purified ALR, DTT oxidation, H2O2 HRP-luminol luminescence | AID 485317;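 active = mean and each replicate at 75% or more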;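 note: stock transfer was 7.5 nL into about 7.5 µL; 0% = neutral wells and 100% = wells with inactivated enzyme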
E coli growth: inhibitors of Escherichia coli growth; OD600, 23 h; active compounds read low; OD600 absorbance (test concentration not listed); hit rate 0.21% among 330,000; AID 1053175;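 active = OD600 absorbance below the run mean of sample wells minus 3.6 SD, in any replicate, cut at about 0.56 in these data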;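 note: stock transfer was 300 nL into about 60 µL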
UCH37 DUB inh: human UCH37 deubiquitinating enzyme inhibition; Q9Y5K5; purified proteasome/UCH37, Ub-AMC cleavage fluorescence; inhibition, % (no concentration beside the values); hit rate 0.33% among 330,000; AID 588478;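 active = mean of two replicates above 20%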;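 note: 0% = compound-free wells with enzyme and 100% = wells lacking proteasome; stock transfer was 100 nL into about 20 µL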
Target sequence (Q9Y5K5 whole entry, looked up): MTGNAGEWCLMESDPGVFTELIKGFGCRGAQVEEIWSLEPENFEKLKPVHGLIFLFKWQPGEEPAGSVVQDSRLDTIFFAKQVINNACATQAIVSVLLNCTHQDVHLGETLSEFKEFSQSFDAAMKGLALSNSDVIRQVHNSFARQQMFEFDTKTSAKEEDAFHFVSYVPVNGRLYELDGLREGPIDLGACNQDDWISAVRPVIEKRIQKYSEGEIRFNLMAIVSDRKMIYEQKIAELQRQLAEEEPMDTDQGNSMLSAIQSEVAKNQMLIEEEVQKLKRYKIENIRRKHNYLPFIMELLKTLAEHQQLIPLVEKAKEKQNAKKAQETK
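System: Proteasome-associated human UCH37 deubiquitinase; Input: 0.15 nM proteasome in added enzyme buffer; Also added: Ub-AMC substrate from 1 µM stock; Incubation: 30 min compound-proteasome preincubation then 25 min substrate reaction, room temperature; Detection: fluorescence, ex 355 nm, em 460 nm; Read-out: % inhibition of Ub-AMC cleavage fluorescence; Benchmarks: no-proteasome and no-compound wells.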
* = called active by the depositor; i = inactive; . = no result given; + = active, no number. This is a subset. The share of hits here may be higher or lower than overall.

SMILES	HNF4A DNA FP	FGF22 binding	B2AR ag	LANA-H2A inh	ALR inh	E coli growth	UCH37 DUB inh
CC(Oc1ccccc1)C(=O)NC1CCN(Cc2ccccc2)CC1 (centres undefined)	-2.9	.	-2	-6.2	-5	0.71	5.1
COc1ccc(C(=O)Nc2ccnn2C2CCN(Cc3cnn(C)c3)CC2)cc1	-0.6	i	1	5.3	-2	0.64	2.0
CCOc1ccc(S(=O)(=O)NCCC(=O)N2CCCCCCC2)cc1	2.4	i	-7	.	.	0.7	5.2
COc1cc2c(cc1OC)C(c1cccnc1)CC(=O)N2 (centres undefined)	1.4	i	-2	1.2	.	0.73	1.0
CCCOC(=O)Nc1ccc(S(=O)(=O)Nn2cnnc2)cc1	-4.9	.	0	1.1	-6	0.72	4.7
O=C(COc1ccccc1)N=C1SC2CS(=O)(=O)CC2N1c1ccc(F)cc1 (centres undefined)	8.5	i	-7	-3.0	-1	0.69	6.1
CCn1c(=O)n(CC)c2cc(NC(=O)CSc3ccc([N+](=O)[O-])cn3)ccc21	1.4	i	2	0.6	-7	0.66	7.4
Cc1cc(NC(=O)c2cccc(S(=O)(=O)N(C)C)c2)n(-c2ccccn2)n1	1.7	.	6	-2.7	-6	0.74	0.9
Cc1nnc(SCc2cccs2)[nH]c1=O	-3.0	.	-3	2.4	-3	0.8	2.0
CCn1c(C)c(C(C)=O)c(N2CCN(C(=O)c3ccco3)CC2)nc1=S	0.1	i	1	0.4	8	0.67	6.3
C=CCn1c(SCC(=O)NCc2ccco2)nnc1C1CCCCC1	2.0	i	5	-2.6	11	0.64	5.1
CC(C)C(NC(=O)CN1C(=O)c2ccccc2S1(=O)=O)C(C)C	-0.4	i	4	1.2	72	0.73	1.9
COc1cc(NC(=O)c2ccc(=O)[nH]n2)cc(OC)c1OC	4.0	i	4	1.8	0	0.69	7.8
CC(C)c1ccc2[nH]c(O)c(N=NC(=O)c3cccc(S(=O)(=O)N4CCCCC4)c3)c2c1	1.3	.	10	6.3	-1	0.67	4.6
CC1CCCCC1NC(=O)c1ccc(-n2cncn2)cc1 (centres undefined)	0.8	i	8	1.4	24	0.71	3.7
CC(OC(=O)c1ccccc1Br)C(=O)Nc1nc(-c2cccc([N+](=O)[O-])c2)cs1 (centres undefined)	3.2	.	7	2.8	-2	0.7	-1.5
CCOC(=O)c1c(C)n(C)c2ccc(O)c(CN(C)C)c12	-0.5	.	12	2.1	26	0.71	4.8
COc1ccccc1CN1CCN(C(CC(C)C)c2nnnn2Cc2cccs2)CC1 (centres undefined)	-0.3	.	8	0.7	5	0.7	5.7
O=c1c2cc(NC(=S)N3CCCC3)ccc2nc2n1CCCCC2	-1.0	i	-7	8.0	-4	0.73	0.9
Cc1ccc(S(=O)(=O)N2CCN(S(=O)(=O)c3ccccc3Br)C2=O)cc1	0.2	i	-6	.	.	0.69	4.5
CCOC(=O)c1c(NC(=O)CSc2nnc(C)c(=O)[nH]2)sc2c1CCCC2	-6.9	.	-2	11	20	0.71	8.4
CCN(CC)c1nc(Nc2ccccc2)nc(Oc2ccc(=O)n(C)n2)n1	2.5	.	3	3.3	-3	0.7	-3.1
N#CCCN1CCN(CCC#N)CC1	-1.9	.	-1	4.2	-2	0.66	-0.7
O=C(c1cc2c(ccc3ccccc32)o1)N1CCCCC1	3.1	i	2	4.4	-46	0.66	3.7
CC(=O)Nc1ccc(S(=O)(=O)NNC(=O)COc2cccc(C)c2)cc1	0.1	.	5	0.6	72	0.68	-0.5
Cc1cc(C)c(NC(=O)COc2ccc(-n3cnnn3)cc2)c(C)c1	-0.3	i	1	3.2	-13	0.75	4.8
COCCOC(=O)C1=C(C)N(c2ccccc2)C(=S)NC1c1ccccc1C(F)(F)F (centres undefined)	-1.3	i	3	35*	.	0.7	0.3
c1ccc(CN2CCN(c3nc(-c4ccccc4)nc4ccccc34)CC2)cc1	3.5	.	-3	3.3	-3	0.73	1.4
O=C(N=C1SC2CS(=O)(=O)CC2N1c1ccc(Br)cc1F)C1CC1 (centres undefined)	1.0	i	4	-2.3	-5	0.67	5.9
Cc1ccc(C)c(S(=O)(=O)Nc2ccc(C(=O)N3CCC3)cc2)c1	-0.1	i	0	6.3	2	0.72	-0.3
CC1Cc2ccccc2N1C(=O)c1ccc2snnc2c1 (centres undefined)	-1.5	i	9	1.9	-2	0.71	2.3
CCOC(=O)/C(C#N)=C1\CC2CCC1(C)C2(C)C (centres undefined)	1.2	i	0	0.6	.	0.68	-1.6
CCOC(=O)N1CCC(C(=O)Nc2ccc(OCC)cc2)CC1	-0.4	i	5	-12	.	0.67	2.4
CCc1nnc2sc(-c3ccc(NC(=O)CSc4ccc(Cl)cc4)cc3)nn12	-7.0	.	6	4.8	-1	0.72	-6.9
Cc1ccc(S(=O)(=O)N(C)c2cc(S(=O)(=O)Nc3ccncc3)c(C)cc2C)cc1	0.2	.	3	-1.1	-31	0.74	6.3
CC(=O)N1CCOc2ccc(S(=O)(=O)N3CCC(C(=O)Nc4ccccc4F)CC3)cc21	-3.6	i	0	0.2	-4	0.64	-0.9
CCc1nc(SCc2cccnc2)[nH]c(=O)c1C	-0.3	.	0	0.6	99*	0.68	1.8
O=C1Nc2ncccc2OC1CCCl (centres undefined)	0.4	.	2	-6.1	4	0.64	0.3
CC(=O)OC(c1nc2ccccc2c(=O)n1C1CC2(OC1=O)c1ccccc1N1C(=O)C(C)(C)N(O)C12)C(C)C (centres undefined)	11	i	3	-4.5	-8	0.75	3.8
COc1ccc(Br)cc1CN1CCN(C(=O)c2ccc(F)cc2)CC1	2.5	i	1	2.7	-3	0.65	4.5
COc1ccc(NC(=O)CN(C)C(=O)CNC(=O)c2cccs2)cc1	2.0	i	-1	2.4	2	0.69	0.4
COc1ccc([C@@H]2[C@@H]3C(=O)N(C(C)(C)C)C(=O)[C@@H]3[C@]3(Cc4ccc(Cl)cc4)C(=O)N(c4cccc(C)c4)C(=O)N23)cc1	0.2	+	-2	2.6	-13	.	-0.4
O=C(CCC1CCCCC1)Nc1ccccc1O	-5.7	.	-4	-1.2	91*	0.65	2.4
Clc1ccc2ccc3cccnc3c2n1	0.1	i	7	2.5	-9	0.64	0.8
N#Cc1ccc(OCC(=O)OCC(=O)Nc2cc(C(F)(F)F)ccc2N2CCOCC2)cc1	3.4	i	-2	0.2	-4	0.71	4.9
CCn1cc(Cl)c(C(=O)Nc2cc(C(=O)OC)cc(C(=O)OC)c2)n1	-4.7	i	-3	-0.3	-28	0.68	0.4
N#C/C(=C\c1ccc(Cl)cc1)c1nc2ncccc2[nH]1	4.8	.	-1	9.6	.	0.7	-5.9
Cc1c(CNCCc2ccccc2)c(C(=O)O)c(C)n1-c1ccccc1	3.9	i	5	-2.3	4	0.69	5.2
COc1ccc(NC(=O)c2cc3nc(-c4ccccc4)cc(C)n3n2)cc1OC	-3.3	i	7	7.6	-32	0.73	3.3
CCC(C)OC(=O)c1cc(C)nc2c(Br)cc(Br)cc12 (centres undefined)	0.5	.	15	-2.0	.	0.73	1.7
COC(=O)CN(C#N)c1nc(NC(C)C)nc(NC(C)C)n1	0.4	i	-5	0.4	-2	0.69	1.3
CCOc1ccc(-c2nnc(SCC(=O)O)n2Cc2ccccc2)cc1	-4.4	.	-1	3.6	-7	.	.
C=CCC[C@H](Cc1ccc(F)cc1)C(=O)OC[C@@H](Cc1c[nH]c2ccccc12)NC(=O)[C@@H](CC=C)CC(=O)N(CCO)Cc1ccccc1	-1.5	i	22	-0.9	6	.	0.4
CCOC(=O)c1sc(N)c(C(=O)Nc2ccccc2OC)c1C	-3.5	i	-6	2.3	-6	0.7	4.4
CC(C)CCn1nc(C(=O)Nc2nc3c(s2)CCCC3)c2ccccc2c1=O	3.1	i	10	-0.9	-15	0.71	0.5
Cc1ccc2c(c1)S/C(=C/c1ccc[n+](CCO)c1)N2C	3.1	i	-72	-44	34	0.64	11
COc1ccc(Oc2nnnn2-c2ccccc2)cc1	-4.9	.	4	2.8	-3	0.66	5.7
COc1cc(OC)cc(-c2c(-c3cccs3)c3cc(-c4ccc(CN5CCOCC5)cc4)ccc3n2C)c1	-1.5	i	9	-1.3	2	0.73	-39
Clc1ccc(/C=C\c2nccc3c2[nH]c2ccccc23)cc1	11	i	-1	.	.	0.67	-181
COc1ccccc1N1CCN(C(c2cccs2)C(C)NC(=O)c2cccs2)CC1 (centres undefined)	3.0	.	-2	-6.9	9	0.64	0.9

Quoted at random: four compounds from above.
SMILES	HNF4A DNA FP	FGF22 binding	B2AR ag	LANA-H2A inh	ALR inh	E coli growth	UCH37 DUB inh
C=CCC[C@H](Cc1ccc(F)cc1)C(=O)OC[C@@H](Cc1c[nH]c2ccccc12)NC(=O)[C@@H](CC=C)CC(=O)N(CCO)Cc1ccccc1	-1.5	i	22	-0.9	6	.	0.4
Cc1ccc2c(c1)S/C(=C/c1ccc[n+](CCO)c1)N2C	3.1	i	-72	-44	34	0.64	11
COC(=O)CN(C#N)c1nc(NC(C)C)nc(NC(C)C)n1	0.4	i	-5	0.4	-2	0.69	1.3
COc1ccc(Oc2nnnn2-c2ccccc2)cc1	-4.9	.	4	2.8	-3	0.66	5.7

Additional compounds.
SMILES	HNF4A DNA FP	FGF22 binding	B2AR ag	LANA-H2A inh	ALR inh	E coli growth	UCH37 DUB inh
Cc1ccc(N=Nc2c(N)nn(-c3ccccc3)c2N)cc1	0.2	i	7	-1.4	.	0.68	10
C/C(=N\NC(=O)c1ccc(-c2ccccc2)cc1)C1C(=O)c2ccccc2C1=O	2.6	i	9	-2.5	-5	.	.
O=c1oc2cc(O)ccc2c2ccccc12	0.7	.	1	-5.2	88*	0.64	-3.9
c1coc(C2Nc3ccccc3-c3nc4ccccc4n32)c1 (centres undefined)	0.1	i	5	-0.8	14	0.68	i
CCc1ccc(C(=O)NCC2COc3ccccc3O2)o1 (centres undefined)	2.1	.	-2	3.1	2	0.73	1.4
CCCn1c(Cc2ccccc2)nnc1SC(C)C(=O)NC1CC1 (centres undefined)	0.0	i	-8	-1.5	0	0.68	3.5
COc1ccc(C(=O)N(CC2CCCO2)C(C(=O)NC2CCCC2)c2ccc(Cl)cc2)cc1OC (centres undefined)	4.4	.	-1	-2.3	-3	0.67	1.8
Cc1ccccc1OCC(=O)O/N=C(\N)c1ccncc1	-1.2	i	0	-5.9	5	0.66	3.0
C=CC(=O)N=c1sc2ccccc2n1-c1ccccc1	0.4	i	13	-0.6	20	.	.
NS(=O)(=O)c1ccc(NN=C2CCCCC2)c([N+](=O)[O-])c1	1.3	i	-5	0.8	-8	0.66	4.4
Cc1noc(C)c1COC(=O)COc1cccc2c1OC(C)(C)C2	-2.1	.	3	-2.6	-13	0.76	-0.8
Cc1cccc(NC(=O)c2ccccc2-c2ccccc2)c1	-0.7	.	8	0.6	0	0.66	0.4
CCC(C)(C(=O)NC1CCCCC1)N(Cc1ccco1)C(=O)c1ccc2c(c1)OCO2 (centres undefined)	4.5	.	6	-2.3	-4	0.67	1.8
O=C(COC(=O)c1ccc2ccccc2n1)Nc1ccccc1F	-1.3	i	-3	1.2	-10	0.71	1.0
Cc1ccc(S(=O)(=O)N2CCCC(C(=O)N3CCCc4ccccc43)C2)cc1 (centres undefined)	-1.0	.	-5	0.8	-4	0.67	1.1
COc1cc(C)c(NC(=O)C(=S)NCCc2ccccc2)cc1C	1.6	i	1	1.2	-10	0.69	4.1
Cc1ccc(C(C)C)cc1OCC(=O)Nc1ccc(-n2cnnn2)cc1	0.3	i	0	.	.	0.67	1.4
